# Bioassay records (PubChem)
# KCNQ2 inh – KCNQ2 channel blockers in CHO-K1 cells – cell-based, FluxOR thallium flux, B-score, primary screen (AID 2156); 20 min; active compounds read low; only compounds with negative scores are shown here; some inactives read as strong as hits; B-score at 10 µM; 310,000 tested, 1.1% active;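 active means fluorescence ratio B-score at most minus 3 library SDs, with starting brightness B-score within 2 library SDs, cut at about -5.5 in these data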
# Target sequence (O88943 whole entry, looked up): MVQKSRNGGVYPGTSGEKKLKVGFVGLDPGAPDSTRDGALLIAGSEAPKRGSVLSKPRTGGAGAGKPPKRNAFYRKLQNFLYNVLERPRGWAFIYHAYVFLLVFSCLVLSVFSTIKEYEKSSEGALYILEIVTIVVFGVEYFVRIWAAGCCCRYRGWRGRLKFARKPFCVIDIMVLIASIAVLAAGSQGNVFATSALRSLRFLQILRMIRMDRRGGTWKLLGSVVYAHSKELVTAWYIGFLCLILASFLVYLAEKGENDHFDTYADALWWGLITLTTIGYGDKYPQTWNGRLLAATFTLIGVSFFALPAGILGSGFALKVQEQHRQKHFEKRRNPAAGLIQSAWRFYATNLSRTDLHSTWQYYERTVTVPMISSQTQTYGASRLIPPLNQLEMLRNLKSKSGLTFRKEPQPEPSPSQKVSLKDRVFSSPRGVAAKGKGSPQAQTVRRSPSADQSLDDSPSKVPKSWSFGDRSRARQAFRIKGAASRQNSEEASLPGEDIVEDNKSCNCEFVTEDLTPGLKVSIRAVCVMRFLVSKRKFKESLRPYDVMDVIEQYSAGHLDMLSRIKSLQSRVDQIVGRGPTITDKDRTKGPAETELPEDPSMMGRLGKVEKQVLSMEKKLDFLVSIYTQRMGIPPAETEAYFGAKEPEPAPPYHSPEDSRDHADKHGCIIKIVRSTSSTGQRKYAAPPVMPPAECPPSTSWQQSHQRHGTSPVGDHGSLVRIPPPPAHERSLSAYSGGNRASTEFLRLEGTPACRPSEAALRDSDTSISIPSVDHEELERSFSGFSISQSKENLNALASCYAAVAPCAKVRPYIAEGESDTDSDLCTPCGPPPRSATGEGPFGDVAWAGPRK
# KCNQ2 inh baseline – also measured in KCNQ2 inh; calls as there; B-score; measured here: initial fluorescence intensity artifact check;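 brightness before thallium and not channel activity; 0 = typical well and far values either way flag optical interference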
# * hit, by the source's call; i = inactive.
SMILES,KCNQ2 inh,KCNQ2 inh baseline
Cc1ccc(Cc2cnc(NC(=O)C3=NCCN3)s2)cc1,i,0.74
COc1ccc(C2C(C(=O)c3ccco3)=C(O)C(=O)N2CCCn2ccnc2)c(OC)c1 (stereo not given),i,0.13
CN(Cc1c(C(=O)N/N=C/c2cccc(F)c2)nnn1-c1nonc1N)c1ccccc1,i,-0.02
O=C(O)C1CC1c1ccc(Br)cc1 (stereo not given),i,0.08
Cc1cc(C)c(S(=O)(=O)N2CCCCC2)c(C)c1-n1ncnn1,i,0.33
O=C(/C=C/c1cccc(Br)c1)N1CCN(c2ccccn2)CC1,-7.6*,-0.37*
O=C(COC(=O)CCSc1ccc(Cl)cc1)NCc1ccccc1,i,1.1
COc1ccc(N(C(=O)C(C)C)S(=O)(=O)c2cccs2)cc1,i,1.7
Cc1ccnc(NC(=O)C(C)N2C(=O)c3ccccc3S2(=O)=O)c1 (stereo not given),i,-1.6
Cc1ccc(-n2c(=O)c3c4c(sc3n3c(=S)[nH]nc23)CCC4)cc1,i,-0.36
Cc1ccc(Sc2c(CO)c(-c3ccccc3)nn2C)cc1,i,2.1
Cc1ccc(N(CCC#N)C(=O)COC(=O)c2cc(C)no2)cc1,i,0.51
O=C1C(c2ccncc2)N(CCC2=CCCCC2)C(=O)CN1C1CCCCC1 (stereo not given),i,1.2
COc1ccc(-n2c(Cc3ccccc3)nnc2SCc2ccc([N+](=O)[O-])cc2)cc1,i,1.3
O=C(Nc1ccc(Cl)cn1)c1ccc2nccnc2c1,i,0.48
CCN1CCN(CCCNC(=O)Cn2nc(C)n3nc(-c4ccccc4)cc3c2=O)CC1,i,-0.13
Cc1cc(NC(=O)C2CC(c3ccc(F)cc3)=NO2)no1 (stereo not given),i,0.51
CC(C)(C)NC(=O)C1CN(S(=O)(=O)c2ccccc2)CCN1S(=O)(=O)c1ccccc1 (stereo not given),i,-2.5
CC(NS(=O)(=O)c1ccc(Br)cc1)C(c1cccs1)N1CCOCC1 (stereo not given),i,-0.1
COc1ccccc1C(O)(C(=O)NNc1ccccc1C)c1ccccc1OC,i,1
CCc1ccc(OCC(=O)Nc2ccc(S(=O)(=O)N3CCOCC3)cc2)cc1,i,-0.07
O=C(O)C1C(c2ccccc2)C(C(=O)N2CCOCC2)C1c1ccccc1 (stereo not given),i,-0.08
Cc1cc2c3c(c1)C(C)CC(C)(C)N3C(=O)C2=O (stereo not given),i,0.15
O=C(Nc1cccc(F)c1)C1CCCN(S(=O)(=O)c2ccccc2)C1 (stereo not given),i,0.4
O=C(CCN1C(=O)/C(=C/c2ccccc2Cl)SC1=S)NC1CCCC1,i,0.21
# The results go on.
SMILES,KCNQ2 inh,KCNQ2 inh baseline
COc1ccc(C(=O)C[n+]2ccc3ccccc3c2C)cc1,i,-2
c1ccc(Cn2c3ccccc3c3nnc(SCCN4CCCCC4)nc32)cc1,i,-0.27
Cc1ccc(/C(N)=N/OC(=O)c2ccc(Cl)cc2Cl)cc1,i,-0.32
Cc1oc(/N=C/c2cccc([N+](=O)[O-])c2)c(C#N)c1C,i,0.31
O=C(NCc1cccnc1)c1ccc(COc2ccccc2Br)o1,i,-0.79
CC(=O)c1cn(N(C)c2ncc(C(F)(F)F)cc2Cl)c(=O)[nH]c1=O,i,1.3
COc1ccccc1CN(Cc1nc2ccccc2c(=O)[nH]1)S(=O)(=O)c1ccc2ccccc2c1,i,-3.6
O=C(c1ccc2snnc2c1)N1CCCCC1,i,-0.07
O=C(CCC(=O)N1CCc2ccccc2C1)NCCc1ccc(Cl)cc1,i,-0.94
CCCCN(CC)C(=O)CSc1nc2ccccc2c(=O)n1CC1COc2ccccc2O1 (stereo not given),i,0.53
CN(C)Cc1ccccc1C1(O)c2ccccc2CSc2ccccc21 (stereo not given),-7.7*,2.6*
Cc1ccc2c(c1)C1CN(C)CCC1N2C(=O)c1ccccc1NS(=O)(=O)c1ccc(F)cc1C (stereo not given),i,0.05
O=C(COc1cccnc1[N+](=O)[O-])Nc1ccc2c(c1)CCC2,i,0.44
O=C(O)c1cccc(S(=O)(=O)N2Cc3ccccc3C2)c1,i,-0.01
CN1CCCC(OC(=O)c2cccc(Cl)c2)C1 (stereo not given),i,0.47
Cc1c(C(=O)NCc2ccccn2)oc2ccc(S(=O)(=O)N3CCC4(CC3)OCCO4)cc12,i,1.3
CC(C)NC(=O)CSc1nc(Cc2ccccc2)nc2ccccc12,i,-0.88
COc1ccc(NC(=O)CNC(=O)Cn2cnc3sc(C)c(C)c3c2=O)cc1OC,i,-0.46
Cc1cccc(C(=O)NC(=S)NCc2ccccc2)c1,i,0.76
CCCC(=O)NC(=S)Nc1ccc(Cl)cn1,i,1.8
CCOc1ccc(NC(=O)CSc2nncc(=O)[nH]2)cc1,i,0.2
Cc1ccc(S(=O)(=O)NC(=S)c2ccccc2)cc1,i,0.26
O=C(CSc1ccc2ccccc2c1)Nn1cnnc1,i,-0.01
COC(=O)c1cccc(NC(=O)CSc2nnc(C)o2)c1,i,-0.79
CCOC(=O)c1ccc(N2C(=O)CC(SCC(=O)Nc3ccc(S(N)(=O)=O)cc3)C2=O)cc1 (stereo not given),i,0.38
# Continuation:
SMILES,KCNQ2 inh,KCNQ2 inh baseline
Cc1ccccc1CC(=O)Nc1ccc2c(c1)CCC2,i,-1.4
Cc1cccc(S(=O)(=O)Nc2nc3ccccc3nc2OC(C)C)c1,i,-0.65
Cc1ccc(S(=O)(=O)NC(C)(C)CSc2nncn2N)cc1,i,-1.1
CC(C)C(NC(=O)C12CC3CC(CC(C3)C1)C2)C(=O)N/N=C/C1=C(N2CCOCC2)C(=C\c2cccc([N+](=O)[O-])c2)/CC1 (stereo not given),i,1.1
Cc1cc(OCC(=O)NCCCn2ccnc2)c2c(C)c(C)c(=O)oc2c1,i,4
Cc1ccc(C)c(NC(=O)CN(C)C(=O)c2cccc(N3C(=O)CCC3=O)c2)c1,i,0.01
COc1cccc(C(=O)CSc2nc3ccccc3n2CC(=O)N2CCOCC2)c1,i,0.1
O=C(Cc1ccc(S(=O)(=O)N2CCOCC2)s1)NCC(=O)Nc1ccccc1Br,i,2.2
Cn1c2ccccc2c2nnc(SCC(=O)Nc3cccc(O)c3)nc21,i,2
COc1cc(C(C(=O)NCc2ccccc2)N(Cc2ccco2)C(=O)c2cnccn2)cc(OC)c1OC (stereo not given),i,-0.41
Cc1cc(NCCN2CCOCC2)n2ncc(-c3ccccc3)c2n1,i,1.3
CC(C)c1ccccc1N=C1SCCCN1C(=O)c1cccc(N2C(=O)CCC2=O)c1,i,0.02
Cc1ccnc(NC(=O)Cc2ccc(-c3ccccc3)cc2)c1,i,0.19
O=C(c1ccc(Cl)c(Cl)c1)c1cc(-c2ccccn2)c(N2CCOCC2)s1,i,-0.2
Cc1cc(C)n(CC(O)Cn2c3ccc(Br)cc3c3cc(Br)ccc32)c(=O)n1 (stereo not given),i,0.01
COc1ccccc1-c1nnc(SCC(=O)NC2CCS(=O)(=O)C2)n1CCc1ccccc1 (stereo not given),i,-2.6
CCn1nnnc1NCc1ccc(N2CCCC2)cc1,i,-0.26
CCOC(=O)c1ccccc1NC(=O)CCNC(=O)Cn1cnc2ccccc2c1=O,i,0.86
CC(C)(C)C1=C[C@@H](CO)C[C@@H](CO)C1,i,-0.43
N#Cc1nc(-c2ccco2)oc1NCc1ccccc1Cl,i,0.45
O=C1CSC(c2ccc(Cl)cc2Cl)N1c1ccccn1 (stereo not given),i,0.06
COC(=O)[C@@H](Cc1c[nH]c2ccccc12)NC(=O)c1ccc2c(c1)OCO2,i,0.27
Cc1cccc(NC(=O)CN2C(=S)NC(C)(C)CC2C)c1 (stereo not given),i,1.8
CCOC(=O)C1CCCN(c2ncnc3c2oc2ccccc23)C1 (stereo not given),i,-0.96
O=C1c2cccc3cccc(c23)C(=O)N1CCCn1ccnc1,i,6.1
# (further entries)
SMILES,KCNQ2 inh,KCNQ2 inh baseline
CC1CCN(C(=O)Cn2c(=O)n(CCc3ccccc3)c(=O)c3ccccc32)CC1,i,-2.5
c1nc(N2CCCCCC2)c2[nH]cnc2n1,i,0.54
COc1ccccc1CNS(=O)(=O)c1ccc(NC(C)=O)cc1,i,-0.48
COc1ccc(/C=C2\CCC/C(=C\c3ccc(OC)c(OC)c3OC)C2=O)c(OC)c1OC,i,-1
COc1ccc(N2CCN(C(=O)c3cccc(Cn4cc(Cl)cn4)c3)CC2)cc1,i,-0.35
C(=N\Nc1nc(N2CCCC2)nc(N2CCCC2)n1)/c1cccnc1,i,-0.63
CN(C)CCCn1c2c(c(SCC(=O)Nc3cccc4ccccc34)nc1=O)CCC2,i,-0.09
Cc1ccc(C)c(OCc2cc(C(=O)N3CCN(c4ccccc4C)CC3C)no2)c1 (stereo not given),i,-0.74
Cc1ccc(Nc2nc(-c3sc(NC(=O)c4ccccc4)nc3C)cs2)cc1,i,3.3
COCCN1C(=O)c2ccccc2C(C(=O)NCCCN2CCCC2)C1c1c[nH]c2ccccc12 (stereo not given),i,-1.3
C/C(=C\C(=O)c1ccc(F)cc1)NCc1ccc2c(c1)OCO2,i,0.39
COc1ccc(C(=O)Oc2cc(N)n(S(=O)(=O)c3ccc(C)cc3)n2)cc1,i,-2.1
CCOC(=O)c1cnc2c(ccc3ccccc32)c1NCCO,i,0.03
CN(CC(=O)Nc1ccc(Cl)cc1)CC(=O)Nc1cccc(Br)c1,i,-0.02
CCc1cc(C(=O)OC)c(NC(=O)CSc2nccn2C)s1,i,0.65
Cc1ccc(S(=O)(=O)N(C)CC(=O)N(CC(C)C)C2CCS(=O)(=O)C2)cc1 (stereo not given),i,0.12
CC(C)(C)n1nc2c(c1NC(=O)c1ccc(C(F)(F)F)cc1)CS(=O)(=O)C2,i,0.5
COc1cc(C2c3sc(=O)[nH]c3SC3C(=O)N(c4ccc(C)cc4)C(=O)C32)ccc1O (stereo not given),i,-0.69
CCOC(=O)C1CCN(C(=O)c2ccccc2N(C)S(=O)(=O)c2ccccc2)CC1,i,0.6
O=C(NC(Cc1ccccc1)C(=O)O)/C(=C\c1ccco1)NC(=O)c1ccc(Br)cc1 (stereo not given),i,-0.19
CCCCN(C(=O)c1ccc(NC(=O)C(C)C)cc1)c1ccccc1,i,2.6
CC(=O)Nc1cccc(NS(=O)(=O)c2cn(C)c(=O)n(C)c2=O)c1,i,0.21
COc1cccc(C(=O)NC2CC(C)(C)Cc3c2cnn3-c2cccc(F)c2)c1OC (stereo not given),i,-1.8
Cc1ccc(C(=O)Nc2cc(Cl)ccc2-n2cncn2)s1,i,2
COc1cc(C2C(C(N)=O)=C(C)Nc3nc(CCCO)nn32)cc(OC)c1OC (stereo not given),i,-0.1
# The list continues.
SMILES,KCNQ2 inh,KCNQ2 inh baseline
CCOc1ccc(OCC)c(S(=O)(=O)n2cc(C)nc2CC)c1,i,-0.07
C=CCn1c(SC2CCOC2=O)nc2scc(C3CC3)c2c1=O (stereo not given),i,-1.1
Cc1ccc2c(C)c(C(=O)N(C)CCC3CCCCO3)oc2c1C (stereo not given),i,-0.73
N#CCc1ccc(NC(=O)c2ccccc2C(=O)Nc2ccc(CC#N)cc2)cc1,i,0.93
Cn1c(C(=O)N/N=C/c2ccccc2)cc2ccccc21,i,-0.76
COc1ccccc1N(CC(=O)Nc1ccc(S(=O)(=O)N2CCOCC2)cc1)S(C)(=O)=O,i,-1.5
COc1cc(C(=O)Nc2nc3ccccc3[nH]2)cc(OC)c1OC,i,-0.19
Cc1c(C(=O)N2CCCCC2)c(S(=O)(=O)N(C)Cc2ccccc2)c(C)n1C,i,0.27
O=C(C1CCN(S(=O)(=O)c2cccs2)CC1)N1CCc2ccccc2C1,i,1.4
COc1ccccc1N1CCN(C(=O)c2cccc(N3C(=O)NC4CC3(C)Oc3ccccc34)c2)CC1 (stereo not given),-7.7*,-0.25*
NS(=O)(=O)c1ccc(-n2nc(C(=O)O)cc2-c2ccc(Cl)cc2)cc1,i,0.65
CN1N=C2c3ccccc3CCC2C1c1ccc(Cl)cc1 (stereo not given),i,-0.02
CCN(CCn1cccn1)C(=O)CCc1nnc(CCCc2ccccc2)o1,i,-1.5
Nc1nc(N2CCN(c3cccc(Cl)c3)CC2)n[nH]1,i,-0.05
Cc1cccc(C(=O)n2cnnc2N)c1,i,-0.06
CC1CCCN(c2ccc3nncn3n2)C1 (stereo not given),i,-0.16

# This is a subset (hit frequency here may not be typical).
